From PubChem BioAssay
Vif A3G – inhibitors of Vif binding to APOBEC3G peptide, primary screen, biochemical, TR-FRET, GST-Vif 1-94, biotin-A3G peptide, dose response retest (AID 1117319). inhibition, %, or IC50 in µM where a hit was titrated. TR-FRET GST-Vif / biotin-A3G peptide binding; higher % means a stronger effect; test concentration not given here; strong numbers were not always called active. 260,000 compounds, 0.57% hits;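 active = above the screen mean plus three standard deviations and confirmed in dose response; inconclusive = results disagree or hit not tested in dose response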;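 note: Vif residues 1-94 fused to GST binding biotinylated APOBEC3G peptide 110-148; 0% = full assay without inhibitor and 100% = GST in place of GST-Vif; retest series ran down from 100 µM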
ALR H2O2 inh – inhibitors of human ALR sulfhydryl oxidase, primary screen, biochemical, H2O2 detection, HRP-luminol luminescence, single point; FAD-linked sulfhydryl oxidase ALR (Homo sapiens), P55789; purified ALR, DTT oxidation; inhibition, % (concentration not given with the values); 290,000 compounds, 3.8% hits; AID 485317, 2010;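 active = mean and each replicate at 75% or more; inconclusive = only one of the two met; inactive = neither met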;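 note: stock transfer was 7.5 nL into about 7.5 µL; 0% = neutral wells and 100% = wells with inactivated enzyme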
Target sequence (P55789 whole entry, looked up): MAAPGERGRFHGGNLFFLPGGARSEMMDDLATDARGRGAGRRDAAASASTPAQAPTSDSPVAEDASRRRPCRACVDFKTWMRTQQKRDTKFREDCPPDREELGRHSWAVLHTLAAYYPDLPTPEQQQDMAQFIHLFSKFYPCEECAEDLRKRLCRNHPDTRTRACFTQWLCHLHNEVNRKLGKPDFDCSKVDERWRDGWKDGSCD
HNF4A DNA FP – change in binding of human HNF4A to DNA, primary screen, biochemical, fluorescence polarization, FITC-DNA; Hepatocyte nuclear factor 4-alpha (Homo sapiens), P41235; 1 h; activity change, % at 10 µM; 360,000 compounds, 0.3% hits; AID 1224865, 2016; in the data active = activity change above about 30%, passing the limit was not always enough;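 note: controls were the assay level and a saturating level of protein; the project sought stronger binding though the title names inhibitors; some compounds called inactive have numbers as strong as hits; positive values seem to mean higher polarization but the record does not say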
Target sequence (P41235 whole entry, looked up): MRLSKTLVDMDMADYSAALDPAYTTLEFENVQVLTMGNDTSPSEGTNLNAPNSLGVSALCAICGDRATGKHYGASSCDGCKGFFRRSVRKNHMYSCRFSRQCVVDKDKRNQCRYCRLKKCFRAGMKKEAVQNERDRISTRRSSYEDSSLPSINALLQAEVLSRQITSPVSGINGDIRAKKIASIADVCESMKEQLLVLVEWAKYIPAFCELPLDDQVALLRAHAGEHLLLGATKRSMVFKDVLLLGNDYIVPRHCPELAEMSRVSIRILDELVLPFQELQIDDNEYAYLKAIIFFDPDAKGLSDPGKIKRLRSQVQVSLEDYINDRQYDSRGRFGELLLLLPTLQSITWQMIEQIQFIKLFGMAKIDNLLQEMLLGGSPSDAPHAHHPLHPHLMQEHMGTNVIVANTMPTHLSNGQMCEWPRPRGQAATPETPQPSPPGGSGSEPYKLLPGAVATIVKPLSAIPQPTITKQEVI
FGF22 binding – binders of human FGF22 protein, primary screen, FGF22 synaptogenesis inhibitor project, biophysical, thermal shift, single point. 340,000 compounds, 1.5% hits. calls only at 9.99 µM. recombinant FGF22 thermal shift, SYPRO orange fluorescence; percent of sucrose octasulfate shift, DMSO zero. Fibroblast growth factor 22 (Homo sapiens), Q9HCT0. AID 651658, 2012;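 active = melting point raised past a set limit in the mean and every replicate; inconclusive = no clear call; three in four hits are not shown here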
Target sequence (Q9HCT0 whole entry, looked up): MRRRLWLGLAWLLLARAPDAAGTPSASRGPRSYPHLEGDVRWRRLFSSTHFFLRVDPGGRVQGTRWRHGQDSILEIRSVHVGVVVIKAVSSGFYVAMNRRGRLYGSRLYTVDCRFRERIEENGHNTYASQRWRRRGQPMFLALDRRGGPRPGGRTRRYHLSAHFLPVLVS
Ecoli growth – E. coli growth inhibition, primary screen, OD600; Escherichia coli growth, 23 h; stronger effect = lower value; OD600 absorbance (test concentration not listed); 330,000 compounds, 0.21% hits;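 active = OD600 absorbance below the run mean of sample wells minus 3.6 SD, in any replicate, cut at about 0.56 in these data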;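 note: stock transfer was 300 nL into about 60 µL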
AF4-AF9 inh – inhibitors of AF4 peptide binding to AF9, primary screen, biochemical, AlphaScreen, biotin-AF4 peptide, FLAG-AF9, single point | inhibition, % at 10 µM | Protein AF-9 (Homo sapiens), P42568 | 350,000 compounds, 0.47% hits | AID 651704, 2012;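 active = every replicate reaching a set inhibition limit, whatever the replicate mean, cut at about 25% in these data; inconclusive = mean inhibition reaches that limit but some replicates miss it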;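 note: 0% = plate neutral control median and 100% = total signal loss; the record names both 10 and 1 µM as test concentration; the first replicate is given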
Ecoli rRNA inh – reduced GFP signal of wild-type E. coli, primary screen, bacterial rRNA inhibitor project, GFP/RFP fluorescence, OD600, single point; E. coli WT GFP vs humanized-ribosome RFP mutants, 24 h; stronger effect = lower value; DMSO median 0, no signal -100; GFP signal change (wild-type ribosome), % (no concentration beside the values); 350,000 compounds, 1.6% hits;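 active = significant combined selectivity score with lowered wild-type GFP, culture density cut under 30%, mutant RFP and density less affected; inactive = any of these conditions unmet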; note: one replicate is shown; some compounds called inactive have numbers as strong as hits
Ecoli rRNA inh OD600 – further read-out of Ecoli rRNA inh, marked with its call; OD600 change, %; measured here: OD600 growth;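 optical density of the mix in the first replicate; 0 = DMSO median and -100 = no signal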
Ecoli rRNA inh RFP – further read-out of Ecoli rRNA inh, marked with its call; RFP signal change, %; measured here: RFP humanized mutant strains;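 first replicate; 0 = DMSO median and -100 = no signal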
Starred values were filed as active, the others as inactive; i = inactive; ? = inconclusive; · = no result given.

SMILES | Vif A3G | ALR H2O2 inh | HNF4A DNA FP | FGF22 binding | Ecoli growth | AF4-AF9 inh | Ecoli rRNA inh | Ecoli rRNA inh OD600 | Ecoli rRNA inh RFP
CC(=O)N1[C@H](CO)[C@@H](c2ccccc2)[C@@H]1CN(C)C(=O)C1CCC1 | · | · | · | i | · | -0.7 | 2 | 8 | -0.3
COC1(OC)N=C(N)C2(C#N)C(c3ccc(C)cc3)C12C#N (centres undefined) | 4% | 6 | 3.5 | · | 0.74 | · | · | · | ·
O=C(NNC(=O)C12CC3CC(CC(C3)C1)C2)c1cnccn1 | 11% | 2 | 1.3 | · | 0.66 | · | · | · | ·
CC1CN(C(=S)Nc2cccc([N+](=O)[O-])c2)CC(C)O1 (centres undefined) | 3% | 12 | 1.6 | i | 0.72 | -5.5 | 15 | 13 | 5.8
C[C@H]1CN([C@@H](C)CO)C(=O)Cc2cc(NS(C)(=O)=O)ccc2O[C@@H]1CN(C)C(=O)Nc1ccc(F)cc1 | · | · | · | i | · | -1.6 | 2 | 11 | 2.3
Brc1cc2c(cc1COc1ccc(-c3nn[nH]n3)cc1)OCO2 | 28% | 98* | -0.9 | · | 0.77 | · | · | · | ·
C[C@@H]1CN([C@@H](C)CO)C(=O)c2cc(NS(C)(=O)=O)ccc2O[C@@H](C)CCCCO[C@@H]1CN(C)S(=O)(=O)c1ccccc1 | · | · | · | i | · | 2.0 | -3 | -4 | -0.4
COc1ccc(NC(=O)N(C)C[C@H]2OCCCC[C@@H](C)Oc3ccc(NC(=O)Nc4ccc(F)cc4)cc3C(=O)N([C@@H](C)CO)C[C@H]2C)cc1 | · | · | · | i | · | 3.4 | -2 | -2 | -0.1
O=C(NC(=S)NCc1ccc(F)cc1)c1ccccc1 | 3% | · | -1.3 | · | 0.64 | · | · | · | ·
CSCC[C@H](NC(=O)C1CCN(C(=O)[C@H](Cc2ccccc2)NS(=O)(=O)c2ccc(C)cc2)CC1)C(=O)O | -6% | -5 | 5.8 | i | 0.65 | 2.3 | 12 | -2 | 1.2
O=C(COc1ccc(Br)cc1)NNC(=S)NCc1ccccc1 | -2% | 31 | -1.8 | i | 0.68 | -11 | -1 | -20 | 2.0
CC(C)c1ccc(C2(C)NC(=O)N(CC(=O)N3CCN(C(=O)c4cccs4)CC3)C2=O)cc1 (centres undefined) | · | -2 | -3.8 | i | 0.67 | -0.2 | 17 | 10 | 2.4
COc1cccc(NC(=O)N(C)C[C@@H]2Oc3ncc(C#Cc4ccncc4)cc3C(=O)N([C@@H](C)CO)C[C@@H]2C)c1 | · | · | · | i | · | -2.1 | 1 | -1 | -2.1
CN(C)CC(=O)Nc1ccc2c(c1)[C@@H]1C[C@@H](CC(=O)NCc3ccc(Cl)cc3)O[C@H](CO)[C@@H]1O2 | · | · | · | i | · | 1.0 | 0 | 3 | -2.4
Cn1cnc2c1c(=O)n(Cc1ccc(F)cc1Cl)c(=O)n2C | -2% | -1 | -2.4 | · | 0.7 | · | · | · | ·
CCOc1ccccc1N(CC(=O)Nc1ccccc1Br)S(=O)(=O)c1ccccc1 | -1% | · | 2.0 | · | · | 2.7 | 1 | 3 | 4.2
CC(C)OCCCNC(=O)c1ccc(CS(=O)(=O)c2cccc(C(F)(F)F)c2)o1 | 6% | · | 4.5 | i | 0.69 | -2.0 | -19* | -15* | 4.6*
CN(C)c1ccc(NC(=O)Nc2nnc([C@H]3C[C@H](O)[C@@H](CO)O3)s2)cc1 | · | · | -1.2 | i | · | 4.1 | 6 | 4 | 1.2
C[C@@H]1CN([C@H](C)CO)C(=O)Cc2cc(NC(=O)Nc3ccc4c(c3)OCO4)ccc2O[C@H]1CN(C)Cc1ccc(C(F)(F)F)cc1 | · | · | · | i | · | -1.7 | 2 | -11 | -1.9
Cc1ccc(S(=O)(=O)N(C)C[C@@H]2Oc3ccc(NC(=O)CCN4CCOCC4)cc3CC(=O)N([C@@H](C)CO)C[C@@H]2C)cc1 | · | · | · | i | · | 0.5 | 5 | 8 | -0.7
C[C@@H](NC(=O)C[C@@H]1C[C@@H]2c3cc(NC(=O)c4ccc5c(c4)OCO5)ccc3O[C@@H]2[C@H](CO)O1)c1ccccc1 | · | · | · | i | · | -2.9 | 3 | 1 | -1.3
CCCNC(=O)N1[C@H](CO)[C@H](c2ccc(C#CCN(C)C)cc2)[C@@H]1C#N | · | · | · | i | · | -2.0 | 8 | 26 | -5.4
Cc1ccc(N2C(=O)CC(NNC(=O)Cc3ccc(F)cc3)C2=O)cc1Cl (centres undefined) | · | 5 | 3.3 | i | 0.65 | -21 | -4 | -2 | -5.6
CCC(=O)NC(Nc1sc2c(c1C(=O)OC)CCC2)C(Cl)(Cl)Cl (centres undefined) | 1% | 71 | 1.9 | i | 0.7 | 0.4 | 11 | 7 | 6.1
CN(C(=O)OC(C)(C)C)c1ccc(-c2nc3ccccc3s2)cc1 | · | -11 | -0.8 | i | 0.7 | 1.3 | -19 | -9 | -22

Some of the entries above in another layout:
Values in the order – Vif A3G	ALR H2O2 inh	HNF4A DNA FP	FGF22 binding	Ecoli growth	AF4-AF9 inh	Ecoli rRNA inh	Ecoli rRNA inh OD600	Ecoli rRNA inh RFP
Cn1cnc2c1c(=O)n(Cc1ccc(F)cc1Cl)c(=O)n2C
 : -2%	-1	-2.4	·	0.7	·	·	·	·
CCOc1ccccc1N(CC(=O)Nc1ccccc1Br)S(=O)(=O)c1ccccc1
 : -1%	·	2.0	·	·	2.7	1	3	4.2
CC(C)OCCCNC(=O)c1ccc(CS(=O)(=O)c2cccc(C(F)(F)F)c2)o1
 : 6%	·	4.5	i	0.69	-2.0	-19*	-15*	4.6*
CN(C)c1ccc(NC(=O)Nc2nnc([C@H]3C[C@H](O)[C@@H](CO)O3)s2)cc1
 : ·	·	-1.2	i	·	4.1	6	4	1.2

New compounds follow.
SMILES | Vif A3G | ALR H2O2 inh | HNF4A DNA FP | FGF22 binding | Ecoli growth | AF4-AF9 inh | Ecoli rRNA inh | Ecoli rRNA inh OD600 | Ecoli rRNA inh RFP
COc1ccc(/C=N/NC(=O)C(C)Sc2ccccn2)cc1[N+](=O)[O-] (centres undefined) | 0% | -3 | 3.6 | i | · | -2.4 | 20 | 16 | 2.6
Cc1cccc(CSc2nc3c(c(=O)n2C)SCC3)c1 | · | 99* | 1.6 | i | 0.71 | 7.1 | -34* | -21* | -2.5*
CC1=CC2(C#N)C3(N=C(N)C2(C#N)C(c2ccccc2)N1)OCCO3 (centres undefined) | 3% | · | -3.8 | · | 0.73 | · | · | · | ·
COc1cccc(CN2CC(C(=O)NCCOc3ccccc3F)CCC2=O)c1 (centres undefined) | · | -1 | 1.1 | i | 0.71 | 0.5 | 2 | 3 | 0.7
COc1ccccc1-c1nc(COc2ccc(Cl)cc2Cl)no1 | · | -8 | 1.9 | i | 0.68 | -0.2 | -21 | -27 | -2.9
Cc1cc(Nc2ccccc2C(=O)O)n(-c2ccc([N+](=O)[O-])cc2)n1 | 12% | 16 | -2.9 | i | 0.68 | -2.2 | 14 | 0 | -0.2
CN(C)c1c(-c2ccccc2)cc(-c2ccccc2)[nH]c1=O | 4% | · | -2.8 | i | · | 0.0 | 12 | 20 | 0.0
Cc1csc2ncnc(N3CCN(C(=S)Nc4ccc(F)cc4F)CC3)c12 | · | -3 | 2.6 | i | 0.67 | 1.6 | -36 | -37 | -7.9
O=C(NCCc1csc(-c2cccnc2)n1)c1ccccc1 | -5% | -2 | -0.8 | i | 0.69 | 3.9 | 1 | -1 | -9.8
Cc1cccc(N2CCN(C(=O)Cc3ccc(-n4c(=O)[nH]c5ccsc5c4=O)cc3)CC2C)c1 (centres undefined) | 1% | 31 | -0.1 | i | · | -1.5 | -15 | -21 | 12
CCCCS(=O)CC(O)COCC (centres undefined) | 77% | -6 | -4.8 | · | 0.71 | · | · | · | ·
CCOC(=O)c1cnc2c(cnn2C)c1NCCCn1ccnc1 | · | -4 | 6.6 | i | 0.7 | 5.8 | 11 | 10 | 2.3
Cc1c(NC(=O)c2ccc(-c3ccccc3)cc2)cccc1C(=O)O | 8% | -36 | -1.8 | i | 0.7 | -0.4 | 0 | 1 | -5.6
CCOc1cc(NC(=O)C2CC2)c(OCC)cc1NC(=O)CCn1nnc2ccccc21 | ? | -22 | 3.0 | i | 0.68 | -1.8 | 22 | 22 | -9.7
C[C@H]1CN([C@@H](C)CO)S(=O)(=O)c2ccc(C#CC3CC3)cc2O[C@H]1CN(C)C(=O)c1cccc(F)c1 | · | · | · | i | · | 3.4 | -2 | -12 | 9.7
COc1ccc(-n2nnnc2SCC(=O)c2cccc(OC)c2)cc1 | -8% | 4 | -1.7 | i | 0.7 | -3.5 | 4 | 4 | -0.1
CCc1nc2c(OCC3COc4ccccc4O3)cccn2c1N(C)C(=O)c1cccs1 (centres undefined) | · | · | 1.7 | i | · | 3.9 | -13 | -41 | 1.0
Fc1ccc(CN2C3=NCCCN3c3ccccc32)cc1 | -5% | 3 | -5.7 | i | · | 3.6 | 15 | 12 | -6.6
CCN(CC)C(=O)CSc1ncnc2sc(-c3ccccc3)cc12 | 0% | 2 | 0.1 | · | 0.71 | · | · | · | ·
COc1ccccc1-c1cnc2c(c1)C(=O)N([C@@H](C)CO)C[C@@H](C)[C@H](CN(C)C(C)=O)O2 | · | · | · | i | · | -2.9 | 6 | 2 | -2.2
COCc1cc(C)n(CC(=O)Nc2ccc3c(c2)OCO3)c(=O)c1C#N | · | -1 | -1.3 | i | 0.66 | -0.2 | 2 | 0 | -5.1
Cc1ccc(NS(=O)(=O)c2ccc3c(c2)n(C)c(=O)n3C)c(C)c1 | 0% | -4 | 2.0 | i | 0.68 | 0.5 | 5 | -9 | -1.3
Cn1ccc(C(=O)Nc2sc3c(c2C#N)CCC3)n1 | · | -3 | -0.5 | i | 0.68 | 1.5 | 1 | 2 | 1.0
O=C(CSc1nc(Nc2ccccc2)nc(N2CCOCC2)n1)N1CCc2ccccc21 | -1% | -3 | -1.9 | · | 0.7 | · | · | · | ·
C[C@@H]1CN([C@H](C)CO)C(=O)c2cc(C#C[C@@H](C)O)cnc2O[C@@H]1CN(C)C(=O)Nc1ccc(F)cc1 | · | · | · | i | · | -4.3 | 4 | 13 | -2.3
CCOC(=O)N1CCN(S(=O)(=O)c2cc(OCC(N)=O)c(C)cc2Cl)CC1 | 12% | -2 | -1.1 | · | 0.73 | · | · | · | ·
CNC[C@@H]1Oc2ccc(NC(=O)Nc3c(C)noc3C)cc2CC(=O)N([C@@H](C)CO)C[C@@H]1C | · | · | · | i | · | -3.5 | 8 | 1 | 0.7
O=C(COC(=O)C1CCN(C(=O)c2ccc(Cl)cc2)CC1)c1ccco1 | 3% | -19 | -0.7 | · | 0.71 | · | · | · | ·
O=C(O)c1ccccc1C(=O)Nc1cc(-c2ccccc2)[nH]n1 | -2% | 40 | 1.1 | i | 0.67 | 0.4 | 3 | 7 | -1.0
CC(=O)c1cnc(Nc2ccccc2)s1 | -1% | -4 | 1.9 | · | 0.72 | · | · | · | ·

This is a subset. The share of hits here may be higher or lower than overall.
